Compound activity as filed in PubChem BioAssay.
UCH37 DUB inh – inhibitors of human UCH37 deubiquitinase, primary screen, biochemical, Ub-AMC cleavage, fluorescence. Ubiquitin carboxyl-terminal hydrolase isozyme L5 (Homo sapiens), Q9Y5K5. purified proteasome/UCH37. inhibition, % (no concentration beside the values). 0.33% of 330,000 active;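 active = mean of two replicates above 20%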;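 also: 0% = compound-free wells with enzyme and 100% = wells lacking proteasome; stock transfer was 100 nL into about 20 µL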
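Material: human UCH37 enzyme supplied as purified proteasome complex. Measure: % inhibition of Ub-AMC cleavage fluorescence. Medium: pH 7.4 Tris-HCl (50 mM) with ovalbumin, ATP-MgCl2, DTT. Times: 30 min preincubation with enzyme, 25 min cleavage at room temperature. Detection: AMC fluorescence intensity at 355/460 nm.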
E coli growth – E. coli growth inhibition, primary screen, OD600. Escherichia coli growth, 23 h; active compounds read low. OD600 absorbance (test concentration not listed). 0.21% of 330,000 active;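 active = OD600 absorbance below the run mean of sample wells minus 3.6 SD, in any replicate, cut at about 0.56 in these data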;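 also: stock transfer was 300 nL into about 60 µL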
Beta2AR agonist – beta2AR agonists driving receptor internalization, primary screen, cell-based, FAP fluorogen, flow cytometry; Beta-2 adrenergic receptor (Homo sapiens), P07550; Am2.2-beta2AR cells; reference of the scale not given here; response, % (concentration not given with the values); 0.43% of 340,000 active; AID 504454, 2011;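 active = response above a set limit, near 3 SD of response in nonfluorescent compounds, cut at about 42% in these data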;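 also: stock transfer was 100 nL into about 11 µL; a reference agonist was the positive control; negative values mostly stem from fluorescent compounds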
Target sequence (P07550 whole entry, looked up): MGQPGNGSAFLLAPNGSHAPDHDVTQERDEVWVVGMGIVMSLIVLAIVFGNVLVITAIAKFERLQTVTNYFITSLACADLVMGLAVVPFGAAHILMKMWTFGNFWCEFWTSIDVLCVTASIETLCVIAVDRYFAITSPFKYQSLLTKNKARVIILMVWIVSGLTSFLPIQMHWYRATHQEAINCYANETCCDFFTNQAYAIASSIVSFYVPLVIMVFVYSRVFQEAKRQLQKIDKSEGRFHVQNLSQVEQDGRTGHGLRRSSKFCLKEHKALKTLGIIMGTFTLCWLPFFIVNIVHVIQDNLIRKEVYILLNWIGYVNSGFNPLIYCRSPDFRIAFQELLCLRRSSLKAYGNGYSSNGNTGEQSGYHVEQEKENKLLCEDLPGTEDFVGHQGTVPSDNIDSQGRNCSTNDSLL
HNF4A DNA FP – change in binding of human HNF4A to DNA, primary screen, biochemical, fluorescence polarization, FITC-DNA. 1 h. 0.3% of 360,000 active. Hepatocyte nuclear factor 4-alpha (Homo sapiens), P41235. activity change, % at 10 µM; in the data active = activity change above about 30%, passing the limit was not always enough;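 also: controls were the assay level and a saturating level of protein; the project sought stronger binding though the title names inhibitors; some compounds called inactive have numbers as strong as hits; positive values seem to mean higher polarization but the record does not say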
FGF22 binding – binders of human FGF22 protein, primary screen, FGF22 synaptogenesis inhibitor project, biophysical, thermal shift, single point; recombinant FGF22 thermal shift, SYPRO orange fluorescence; percent of sucrose octasulfate shift, DMSO zero; 1.5% of 340,000 active; calls only at 9.99 µM;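 active = melting point raised past a set limit in the mean and every replicate; three in four hits are not shown here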
Target sequence (Q9HCT0 whole entry, looked up): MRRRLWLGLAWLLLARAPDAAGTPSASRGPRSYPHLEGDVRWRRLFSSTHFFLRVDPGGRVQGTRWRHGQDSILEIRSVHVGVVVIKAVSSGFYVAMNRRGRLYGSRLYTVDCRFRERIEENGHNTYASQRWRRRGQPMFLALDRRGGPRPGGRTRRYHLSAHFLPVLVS
ALR H2O2 inh – inhibitors of human ALR sulfhydryl oxidase, primary screen, biochemical, H2O2 detection, HRP-luminol luminescence, single point | purified ALR, DTT oxidation | inhibition, % (no concentration beside the values) | FAD-linked sulfhydryl oxidase ALR (Homo sapiens), P55789 | AID 485317, 2010 | 3.8% of 290,000 active;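 active = mean and each replicate at 75% or more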;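 also: stock transfer was 7.5 nL into about 7.5 µL; 0% = neutral wells and 100% = wells with inactivated enzyme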
Target sequence (P55789 whole entry, looked up): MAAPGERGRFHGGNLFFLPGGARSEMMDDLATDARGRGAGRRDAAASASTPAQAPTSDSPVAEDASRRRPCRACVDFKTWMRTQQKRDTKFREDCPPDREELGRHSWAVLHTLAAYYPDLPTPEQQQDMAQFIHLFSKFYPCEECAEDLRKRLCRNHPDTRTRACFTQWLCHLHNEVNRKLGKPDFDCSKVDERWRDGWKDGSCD
rRNA inh HTS – reduced GFP signal of wild-type E. coli, primary screen, bacterial rRNA inhibitor project, GFP/RFP fluorescence, OD600, single point | E. coli WT GFP vs humanized-ribosome RFP mutants, 24 h; active compounds read low; DMSO median 0, no signal -100 | GFP signal change (wild-type ribosome), % (concentration not given with the values) | 1.6% of 350,000 active;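 active = significant combined selectivity score with lowered wild-type GFP, culture density cut under 30%, mutant RFP and density less affected; inactive = any of these conditions unmet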; also: one replicate is shown; some compounds called inactive have numbers as strong as hits
rRNA inh HTS OD600 – also measured in rRNA inh HTS; calls as there; OD600 change, %; measured here: OD600 growth;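 optical density of the mix in the first replicate; 0 = DMSO median and -100 = no signal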
rRNA inh HTS RFP – recorded beside rRNA inh HTS, whose call it bears; RFP signal change, %; measured here: RFP humanized mutant strains;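 first replicate; 0 = DMSO median and -100 = no signal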
* = called active by the depositor; i = inactive; nt = not tested or not shown; & = joins results of further samples. This is a subset; rates above refer to the full screens.

SMILES	UCH37 DUB inh	E coli growth	Beta2AR agonist	HNF4A DNA FP	FGF22 binding	ALR H2O2 inh	rRNA inh HTS	rRNA inh HTS OD600	rRNA inh HTS RFP
CSC1=NCCN1C(=O)Cc1ccc(-c2ccccc2)cc1	5.0	0.73	2	1.2	i	nt	-19*	-14*	1.4*
Cc1ccc(CCNC(=O)CN2C(=O)COc3ccc(S(=O)(=O)N4CCC(C)CC4)cc32)cc1	0.4	0.67	-4	-3.9	i	nt	0	4	3.1
Cc1occc1C(=O)NC1CCCN(Cc2ccc(CC(C)C)cc2)C1 (stereo unspecified)	2.5	0.67	7	-0.2	i	-5	-35	-42	-9.0
CCCC(C(=O)NCc1ccco1)N(C(=O)CNS(=O)(=O)c1ccc(Cl)cc1)C1CCCC1 (stereo unspecified)	3.6	0.69	-8	-1.4	nt	-1	nt	nt	nt
N#Cc1ccc(C23CC4(C2)[C@H](CN(Cc2ccc(-c5ccccc5)cc2)[C@@H]4c2ccccc2)C3c2ccc(Cl)nc2)cc1 (stereo partly specified)	-0.7	nt	4	5.8	nt	-8	nt	nt	nt
CC1CC(C)CN(C(=O)CSc2n[nH]c(N)n2)C1 (stereo unspecified)	1.8	0.65	3	-1.1	i	-11	8	14	-0.6
O=C(O)C1=C(OCc2ccccc2)C(=O)NCC1	0.3	0.71	-1	-1.9	i	0	16	16	1.6
Cc1ccc(C(=O)CSc2ccccn2)cc1	1.9	0.68	-6	1.4	nt	9	nt	nt	nt
C[C@H]1COC(=O)[C@H](Cc2ccc(F)cc2)CC/C=C/C[C@@H](CC(=O)N[C@@H](CO)Cc2ccccc2)C(=O)N1	0.9	nt	-1	-1.0	i	-1	-3	3	-1.5
O=c1oc(-c2ccc(Cl)c(Cl)c2)nn1-c1ccc(C(F)(F)F)cn1	1.8	0.69	-8	0.2	i	1	9	7	2.7
CC1=NN(c2ccccc2)C(c2ccco2)C1 (stereo unspecified)	2.6	0.63	-3	4.3	i	nt	5	9	0.7
O=C(Cc1ccc(Br)cc1)Nc1ccc(S(=O)(=O)NCC2CCCO2)cc1 (stereo unspecified)	0.2	0.69	-11	-2.2	nt	4	-28	-40	-2.7
O=C(CN1CCOCC1)N/N=C/c1ccc(-c2cccc(Cl)c2Cl)o1	nt	nt	4	1.4	i	-2	nt	nt	nt
CC(=O)c1ccc(OCc2cc(C(=O)NC(C)Cc3ccccn3)no2)cc1 (stereo unspecified)	6.1	0.72	-2	5.2	i	-20	3	0	4.5
CC1(C)N=C(SCC(=O)Nc2ccc(Cl)cc2)C(c2ccccc2)=N1	5.0	0.65	-5	-0.6	nt	nt	nt	nt	nt
CCOC(=O)Cc1csc(Nc2c(C)n(C)n(-c3ccccc3)c2=O)n1	1.7	0.72	10	0.6	nt	25	nt	nt	nt
Cc1ccc(S(=O)(=O)NCCC(=O)Nc2ccc(C)cc2C(=O)c2ccccc2)cc1	1.9	0.69	-4	-7.3	nt	-4	nt	nt	nt
O=C(OCCc1ccccn1)c1cccc([N+](=O)[O-])c1	2.0	0.65	0	1.4	i	nt	-6	9	0.2
COC(=O)[C@H](CCSC)NC(=O)N1CCN(c2cccc(C(F)(F)F)c2)CC1	3.2	0.61	3	0.1	nt	2	nt	nt	nt
NC(=S)Cc1ccccc1Cl	4.3	0.7	2	3.7	i	3	8	9	1.4
CCCCOc1ccc(C(=O)OCC(=O)N2CCCCCC2)cc1	5.5	0.7	-3	-2.6	i	-2	-5	-20	-2.8
CCC(OC(=O)C(CC(C)C)NC(=O)c1ccccc1)C(=O)Nc1nnc(C)s1 (stereo unspecified)	-4.5	0.68	-6	1.9	i	9	-5	2	4.0
Cc1ccc(NC(=O)NCc2c(C)nn(C)c2C)cc1Cl	0.8	0.66	7	-2.1	nt	nt	-17	-15	-0.8
CCCCCn1c(C(C)NC(=O)CCC)nc2ccccc21 (stereo unspecified)	1.5	0.7	-7	1.4	i	7	nt	nt	nt
COC(=O)N1N=C(c2ccccc2)CC1(O)C(F)(F)F (stereo unspecified)	1.2	0.64	-1	0.0	i	-3	1	-4	2.3

Continued.
SMILES	UCH37 DUB inh	E coli growth	Beta2AR agonist	HNF4A DNA FP	FGF22 binding	ALR H2O2 inh	rRNA inh HTS	rRNA inh HTS OD600	rRNA inh HTS RFP
CCOc1ccc(OCC(=O)N2CCN(S(=O)(=O)c3ccccc3)CC2)cc1	nt	nt	nt	6.4	i	nt	4	3	-1.7
COc1cc(OC)cc(C(=O)NNC(=O)c2ccc3c(c2)OCCO3)c1	0.4	0.71	5	-0.5	i	-10	4	8	1.5
O=C1/C(=C/c2ccc(N3CCCC3)cc2)NC(=S)N1C1CC1	0.8	0.72	-94	169	nt	97*	nt	nt	nt
CN1CCN(C2Cc3ccc(F)cc3Sc3cc(F)c(Cl)cc32)CC1 (stereo unspecified)	nt	nt	14	1.5	i	-6	-43*	-34*	-2.2*
O=[N+]([O-])c1ccc(OS(=O)(=O)Cc2ccccc2)cc1	2.8	0.68	-3	-0.8	i	0	5	-3	-0.8
CSc1c(CC(=O)Nc2ccccc2)n(Cc2ccccc2)c2ccccc12	1.0	0.72	9	0.1	i	-8	nt	nt	nt
Cc1c(N=C/C=C/c2ccccc2)c(=O)n(-c2ccccc2)n1C	12	0.7	0	-2.1	nt	63	nt	nt	nt
Cc1ccc(-c2cc(C(=O)N/N=C/c3c[nH]c4ccccc34)n[nH]2)o1	nt	nt	0	0.7	i	nt	-12	-3	-2.1
CN(CC(=O)Nc1ccccc1Cl)C(=O)c1cccc(-n2cccc2)c1	2.5	0.65	1	-1.8	i	2	2	8	-2.1
COc1ccc(NC(=O)C2CC(=O)N(Cc3ccc(C)cc3)C2)cc1S(=O)(=O)N1CCCCC1 (stereo unspecified)	-0.8	0.65	7	2.0	nt	-2	nt	nt	nt
CCN1C(=O)/C(=C\N(C(C)=O)c2ccccc2)OC1=S	2.3	0.68	13	0.7	nt	2	nt	nt	nt
CCCC1NC(=O)c2cc3ccccc3cc2-n2c1nc1ccc(F)cc1c2=O (stereo unspecified)	nt	nt	nt	2.1	i	nt	-2	13	3.1
COC(=O)c1ccc(-c2ccc(Cl)cc2)nc1C	0.2	0.71	-2	4.4	nt	-3	nt	nt	nt
CCOc1ccc(S(=O)(=O)N2CCN(c3ccccc3OC)CC2)c2cccnc12	4.7	0.67	1	-3.0	nt	7	nt	nt	nt
CCCCN(CCCC)C(=O)CSc1nnc2n(C)c(=O)c3c4c(sc3n12)CCCC4	-0.1	0.69	4	-2.2	nt	nt	nt	nt	nt
C1CCc2c(nc3nnnn3c2NC2CCCC2)C1	2.1	0.68	-1	-1.1	nt	-17	15	10	-0.6
COc1cc(C(=O)Oc2ccc3c(c2)OCC3=O)cc(OC)c1OC	6.9	0.73	10	4.3	nt	-4	nt	nt	nt
CCOCCCNC(=O)C(c1ccc(C)cc1)N(Cc1cccs1)C(=O)CNC(C)=O (stereo unspecified)	1.5	0.67	0	3.0	i	2	0	-1	6.3
COC(=O)c1ccccc1Oc1ccc(NC(=O)C(C)(C)CCl)cc1	4.9	0.72	7	1.3	i	-5	-7	-15	5.2
O=C(CCC(=O)N1CCCCC1)Nc1nnc(C2CCCCC2)s1	2.9	0.68	-1	-0.5	i	-2	-4	-6	-0.9
Cc1cccc(CSc2ncnc3ccccc23)c1	2.5	0.66	8	1.6	i	-14	-22	-23	-1.4
C=CCC1(CC=C)CCCN1C(=O)Cn1nnnc1CN(C)C(C)C	0.3	0.64	0	2.1	i	0	5	3	-1.7
Cc1oc2cc3oc(=O)c(CCC(=O)N(C)CC(=O)O)c(C)c3cc2c1C	-52	0.65	-8	-3.6	i	-5	6	5	4.7
Cc1noc(C)c1NC(=O)N(C)C[C@H]1Oc2c(NC(=O)Nc3ccccc3)cccc2C(=O)N([C@H](C)CO)C[C@@H]1C	1.1	nt	-3	-5.8	i	1	2&-1	2&6	-0.4&3.2
Cc1ccc(C)c(OCC(=O)Nc2ccccc2C(=O)N2CCOCC2)c1	nt	nt	-4	-4.3	i	-2	-5	-9	-0.3

(cont.)
SMILES	UCH37 DUB inh	E coli growth	Beta2AR agonist	HNF4A DNA FP	FGF22 binding	ALR H2O2 inh	rRNA inh HTS	rRNA inh HTS OD600	rRNA inh HTS RFP
Cc1nc2ccc(NC(=O)C3=NN(C)C(=O)CC3)cc2s1	8.3	0.68	3	-1.4	i	-2	6	7	-1.6
CC(C(=O)Nc1ccccc1C#N)N1C(=O)NC2(CCCCCC2)C1=O (stereo unspecified)	0.7	0.67	0	2.4	i	nt	13	9	-1.6
Cc1c(C(=O)Nc2nnc(C3CC3)s2)oc2c(Cl)cccc12	-7.3	0.69	-2	0.6	i	8	2	-1	-2.2
O=[N+]([O-])c1cc([N+](=O)[O-])c2oc(-c3ccccc3)c(Br)c2c1O	27*	0.6	4	-8.2	nt	nt	nt	nt	nt
O=C1c2ccccc2C(=O)N1c1ccc(Cl)cn1	1.6	0.75	0	9.7	nt	-4	nt	nt	nt
CCN1C(=O)NC(c2ccccc2)C1=O (stereo unspecified)	0.0	0.68	0	2.8	i	-7	nt	nt	nt
COCCOC(=O)c1[nH]c2c(c1C)C(=O)CC(c1ccc(F)cc1)C2 (stereo unspecified)	2.0	0.69	-3	1.3	i	-5	5	8	-1.8
COc1c(Br)cc(C(N)=O)cc1OCc1ccccc1	3.0	0.64	6	-11	i	-2	-20	-21	-6.7
OC(CNC1CCCC1)COc1ccc(Cl)cc1 (stereo unspecified)	3.4	0.7	-2	-3.7	i	-3	12	10	2.2
COc1ccc(CCC(=O)c2ccc(OC)cc2)cc1	3.6	0.66	-2	-0.8	i	-20	-7	2	1.0
CC(C)c1ccc(/C=C2\SC(=O)N(CC(=O)NCCCn3ccnc3)C2=O)cc1	10	0.69	2	7.2	i	99*	2	-18	3.8
CCN(Cc1nc2cc(Cl)ccc2c(=O)[nH]1)C(=O)CN1C(=O)NC2(CCCCC2C)C1=O (stereo unspecified)	-2.1	0.72	-1	-0.5	i	nt	-2	0	-2.0
CC(=O)N1c2ccccc2Oc2cc3ccccc3cc21	-16	0.61	6	-2.5	nt	-28	nt	nt	nt
CNc1nc(SC)nc2ccsc12	3.0	0.7	-7	-1.2	nt	-9	nt	nt	nt
COc1ccc(CCNC(=S)N2CCN(S(=O)(=O)c3ccccc3)CC2)cc1	-1.1	0.66	4	-1.9	i	-1	-2	-7	3.3
O=C(NNC(=O)c1ccc(NC(=O)c2ccccc2)cc1)c1ccc(F)cc1	-2.7	0.69	-1	1.0	i	-10	3	15	4.7
Cc1ccc2nc(-c3ccc(NC(=O)CNC4CC4)cc3)sc2c1	-63	0.63	30	3.5	i	nt	-16	-13	0.8
O=C(N/N=C/c1cccnc1)c1cccc(S(=O)(=O)Nc2cccc(Cl)c2)c1	nt	nt	18	-6.2	i	-1	4	7	-0.8
